Source: PubChem (Fisher Drug Discovery Resource Center)
NPYLR7 agonist: agonists of mosquito NPYLR7 receptor, primary screen, cell-based, Aedes aegypti, calcium fluorescence, mosquito biting behavior; AID 1259423, 2018; activation, % at 10 µM; HEK293T NPYLR7/Galpha15, GCaMP6s calcium fluorescence; Aedes aegypti neuropeptide Y-like receptor 7 (NPYLR7); hit rate 0.15% among 270,000; in the data active = activation above about 40%;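 note: 0% = vehicle and 100% = reference agonist at the receptor; some compounds past the cut are filed as inactive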
NPYLR7 agonist max-min: recorded beside NPYLR7 agonist, whose call it bears; activation, %; measured here: Max-Min RFU normalised activation; some inactives read as strong as hits;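 span of the calcium signal over five minutes; 0% = vehicle and 100% = native peptide agonist; compound fluorescence can raise it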
* hit, by the source's call; & = joins results of further samples. These rows are one share of the data; rates above refer to the full screens.

Under each structure: NPYLR7 agonist	NPYLR7 agonist max-min
> CS(=O)(=O)N1CCCC1C(=O)N(Cc1ccccc1)c1nc2c(Cl)cccc2s1 (stereo not drawn)
→ 3	6
> CN(C)c1ccc(C(=O)N2CCC2(C)C(=O)O)cc1 (stereo not drawn)
→ 0	-2
> O=C1c2ccccc2C(O)(c2ccc(Br)cc2)N1Cc1cccs1 (stereo not drawn)
→ 1	1
> COc1ccc(N2C(=O)/C(=C/c3ccccc3OC)C(=O)NC2=S)cc1
→ 3	10
> CC(C)c1ccc(-n2ccc3c(cnc4ncnn43)c2=O)cc1
→ -2	0
> COc1cccc(-c2cc(C(=O)N3CCN(C(=O)c4ccc(OC)cc4OC)CC3)c(C)n2-c2ccccc2F)c1
→ -1	11
> CCC(C)(CC(=O)OC)NCc1cnc(C)cn1 (stereo not drawn)
→ -2	-5
> CC(c1ccccc1)N(Cc1cc(NC(=O)C2CC2)ccc1N(C)C)C(=O)c1ccccc1Cl (stereo not drawn)
→ 3	5
> O=C(c1cc(-c2ccccc2F)n2nc(-c3ccccc3)cc2n1)N1CCN(C/C=C/c2ccccc2)CC1
→ 12&-12	23&-12
> Cc1nc2c(C)cccn2c(=O)c1NC(=O)COc1ccccc1
→ 3	0
> CCCCN(C(=O)C(C)CCC)c1c(N)n(CCC)c(=O)[nH]c1=O (stereo not drawn)
→ 4	9
> CN(C)S(=O)(=O)c1cccc(C(=O)N2CCN(CC=Cc3ccccc3)CC2)c1
→ -2	-3
> CCOc1ccc2nc(NC(=O)C(CC)CC)sc2c1
→ 20	12
> CC(=O)Nc1ccc(CN2CCN(Cc3ccsc3)C(CCO)C2)cc1 (stereo not drawn)
→ 0	-2
> Cc1ccc(Cc2nnc(N3CCCC3)[nH]c2=O)cc1
→ 11	6

Remaining list, next part
Under each structure: NPYLR7 agonist	NPYLR7 agonist max-min
> Cn1ccc(NC(=O)c2ccccc2Sc2ccc(Br)cn2)n1
→ 17	13
> COc1ccc(Br)c(C(=O)O)c1NS(=O)(=O)/C=C/c1ccc(C)cc1
→ 2	-4
> Cc1ccc(NS(=O)(=O)c2ccc3oc(=O)ccc3c2)cc1Cl
→ 3	2
> Cc1cccc(OCCC(=O)Nc2ccc(-n3cncn3)cc2)c1C
→ 4	4
> CCC(C)NC(=O)CN(c1ccc(C)cc1)S(=O)(=O)c1ccc(OC)c(OC)c1 (stereo not drawn)
→ -3	-6
> CCCSc1ncccc1C(=O)N1CCN(c2c(CC(=O)OCC)c(C)nc3ncnn23)CC1
→ 29	17
> COc1cc(-c2nn(CN3CCCCCC3)c(=S)o2)cc(OC)c1OC
→ 1	0
> O=C(NCc1ccccc1Cl)c1cc(Cl)ccn1
→ -9	-11
> O=S(=O)(c1ccccc1NC(C1CC1)C1CC1)C(F)(F)F
→ 3	11
> COc1ccc(OCC(O)CN)cc1 (stereo not drawn)
→ 3	0
> COc1ccc2cc([C@@H](C)C(=O)O)ccc2c1
→ -5	-8
> CC(C)(C)n1ncc2c(=O)n(NC(=O)c3ccc(S(=O)(=O)N4CCCCC4)cc3)cnc21
→ 3	0
> CN1CCCc2cc(C(CNS(=O)(=O)c3cccs3)N3CCCCC3)ccc21 (stereo not drawn)
→ 1	-2
> O=C(CS(=O)Cc1ccc(F)cc1Cl)Nc1cccc(F)c1 (stereo not drawn)
→ -1	-4
> Cc1ccc(C)c(OC(C)C(=O)NCCN2CCNC2=O)c1 (stereo not drawn)
→ 0	20

More entries follow.
Under each structure: NPYLR7 agonist	NPYLR7 agonist max-min
> CCCc1nnc(C(=O)N2CC[C@H](O)[C@@H](O)C2)o1
→ 2	2
> CCC(c1ccncc1)n1ccnc1-c1nc[nH]c1C (stereo not drawn)
→ 15	11
> CCC(COC)NC(=O)c1cnc2c(-c3ccc(OC)cc3)cnn2c1C (stereo not drawn)
→ 8	-4
> CN1CCN(N=Cc2ccc(O)c(O)c2)CC1
→ 1	7
> COc1cc([N+](=O)[O-])ccc1N1C(=O)C2C3C=CC(C)(O3)C2C1=O (stereo not drawn)
→ 9	8
> CCOc1cccc(NC(=O)Cc2ccc(C)nc2)n1
→ -8	-9
> COC(=O)CCc1c(C)nn(-c2ccc(C(=O)NCCc3cccnc3)cc2)c1C
→ -6	-9
> Cc1cc(C)n(CCN(C(=O)CCS(=O)(=O)c2ccc(F)cc2)c2nc3ccccc3s2)n1
→ -16	-24
> COc1ccc(CCC(=O)N2CCCN(c3ccnc(C)c3)CC2)cc1
→ -4	-6
> CCCn1ncc(C(=O)N(C)Cc2nc3ccsc3c(=O)[nH]2)c1C
→ 4	0
> O=C(CC(c1ccccc1)c1ccccc1)Nn1cn[nH]c1=S
→ 3	-2
> COCCn1c(C)cc(C(=O)Cn2nnn(-c3cccs3)c2=O)c1C
→ 8	6
> Cc1cc(C2CCCN2C(=O)NCc2ccsc2)on1 (stereo not drawn)
→ -13	-18
> CCn1cc(CN(C)Cc2nc(-c3cc(OC)ccc3F)oc2C)cn1
→ 0	-3
> COCCn1ccc(NCc2ccc(CO)o2)n1
→ -2	-7

Later entries
Under each structure: NPYLR7 agonist	NPYLR7 agonist max-min
> OC(c1ccccc1)C(F)(F)C1(F)OC(F)(F)C(F)(F)C1(F)F (stereo not drawn)
→ 1	1
> CC(=O)c1ccc(S(=O)(=O)Nc2ccc(-c3ccc4nncn4n3)cc2)cc1
→ -9	-4
> CC1CC(C)CN(C(=O)C(C)Oc2ccc(C(=O)c3ccc(F)cc3)cc2)C1 (stereo not drawn)
→ -2	-3
> N#Cc1ccc(OCC(=O)Nc2ccc3c(c2)C(=O)c2ccccc2C3=O)cc1
→ 0	0
> COc1cc2nc(-c3ccc(C)o3)cc(C(=O)NCCCc3ccccc3)c2cc1OC
→ 7	-5
> O=C(Nc1ccc(Cl)c(C(F)(F)F)c1)N1CCC(c2ccc(F)cc2)CC1
→ -9	-12
> CCOC(=O)C1CCCN(C(=O)c2cn(Cc3ccccc3F)nn2)C1 (stereo not drawn)
→ 13	9
> Cc1ccccc1C1c2[nH]c3ccccc3c2CCN1C(=O)c1cccc(C#CC(C)(C)O)c1 (stereo not drawn)
→ -7	-11
> NC(=O)C1CCN(C(=O)Nc2c[nH]c3ccccc23)CC1
→ -2	-8
> Cc1sc2nc(SCC(=O)N(C)CCC#N)n(C3CCCC3)c(=O)c2c1C
→ -7	-7
> Cc1ccc(N2CC(C(=O)NC(C)c3cnn(C)c3C)CC2=O)cc1 (stereo not drawn)
→ -1	-3
> CCCc1cc(=O)[nH]c(-n2nc(C)cc2NC(=O)CCc2ccccc2)n1
→ -3	-7
> CCn1ncnc1CN1CCN2CCN(C)C(=O)C2C1 (stereo not drawn)
→ 6	3
> Cc1c(P(c2ccccc2)c2ccccc2)[n+]2ccccc2n1C
→ 4	2
> Cc1ccc(CN(C)c2ncccc2C(N)=O)cc1
→ 0	1

More results
Under each structure: NPYLR7 agonist	NPYLR7 agonist max-min
> COc1cccc(CN(CCC(C)C)CC(O)COc2ccccc2)c1OC (stereo not drawn)
→ 23	28
> COc1cccc(CO[C@]2(C(=O)NCC3CCCO3)CC(OCc3cccc(C(F)(F)F)c3)[C@H](O)[C@H](O)C2)c1 (stereo partly drawn)
→ 2	9
> Cc1ccc(F)cc1S(=O)(=O)Nc1ccccc1C(=O)NCCc1ccc(F)cc1
→ -3	7
> Cc1ccc(S(=O)(=O)N(C)C)cc1NC(=O)C1CCCN(C(=O)c2ccc(Cl)cc2)C1 (stereo not drawn)
→ 9	7
> O=C(COc1ccc2c3c(c(=O)oc2c1)CCC3)NC1CCCC1
→ 21	19
> CCCn1c(SCC(=O)c2ccc3c(c2)CCC3)n[nH]c1=O
→ 0	-1
> COc1cccc(N2C(=O)CSC2c2cccc(NC(=O)Cc3cccs3)c2)c1 (stereo not drawn)
→ 5	14
> COc1cccc(OCc2ccccc2)c1C(=O)NCCc1cccs1
→ -8	-8
> COc1ccc(Cl)cc1C(=O)Nc1cc(C)nn1-c1nc2c(c(=O)[nH]1)CCC2
→ 6	-2
> CC1(C)CN(C(=O)c2cccs2)C2(S1)C(=O)Nc1ccc(Cl)cc12 (stereo not drawn)
→ 3	7
> COc1ccc(S(=O)(=O)Oc2ccccc2CNCc2ccc(F)cc2)cc1
→ -1	-5
> COc1cccc2c(N)ccnc12
→ -3	4
> CCC(COC)NC(=O)c1cnc2c(-c3c(F)cccc3Cl)cnn2c1C (stereo not drawn)
→ 9	-1
> COc1ccc(-c2nnc(SC3CCOC3=O)n2C2CCCCC2C)cc1 (stereo not drawn)
→ 4	2
> CCC1c2ccsc2CCN1C(=O)/C=C/c1cc(C)ccc1OC (stereo not drawn)
→ 2	-2

Other results follow:
Under each structure: NPYLR7 agonist	NPYLR7 agonist max-min
> Cc1cc(Nc2ccccc2)n(C(=O)c2ccccc2)n1
→ -11	-15
> Nc1cc(-c2ccc(Cl)c(Cl)c2)nn1-c1ccc(C(=O)NCCc2ccccn2)cc1
→ -2	-7
> OCCNc1nnnc2c1sc1nc(N3CCOCC3)c3c(c12)CCCC3
→ 3	2
> CC(C)CCNS(=O)(=O)Cc1ccc(N)cc1
→ 12	9
> Cc1cccc(Nc2c(C(=O)O)cccc2[N+](=O)[O-])c1
→ 16	4
> CCC(c1ccccc1)N1CCSC(C)(C)C1 (stereo not drawn)
→ -1	-6
> Cc1nc(-c2ccc(Cl)cc2)nc(N2CCNCC2)c1Cc1ccccc1
→ -7	4
> Cc1cc(C2=NNC(=NCc3ccco3)SC2)c(C)n1Cc1cccs1
→ 0	29
> OC(c1ccccc1)c1nc(/C=C/c2ccccc2)cs1 (stereo not drawn)
→ 8	3
> CCCCNC(=O)N(Cc1ccc(OS(=O)(=O)c2ccc(F)cc2)cc1)Cc1ccco1
→ -3	-1
> CC(C)c1noc(CCNC(=O)N2CCCCC2c2cccn2C)n1 (stereo not drawn)
→ 5	6
> Cc1ccc(C2CCCN2C(=S)NC2CCN(C)CC2)cc1C (stereo not drawn)
→ 0	1
> CC(C)(C)c1ccc(/C=N\Nc2nncn2N)cc1
→ -14	-18
> CC1CCC(N(C)C(=O)CCNC(=O)c2ccccc2)CC1 (stereo not drawn)
→ 1	0
> CN(CCC(O)c1ccccc1)Cc1cccc(C#N)c1 (stereo not drawn)
→ -2	-4

Some of the entries above, set out differently:
COCCn1c(C)cc(C(=O)Cn2nnn(-c3cccs3)c2=O)c1C
  NPYLR7 agonist: 8; NPYLR7 agonist max-min: 6
Cc1ccc(F)cc1S(=O)(=O)Nc1ccccc1C(=O)NCCc1ccc(F)cc1
  NPYLR7 agonist: -3; NPYLR7 agonist max-min: 7
COCCn1ccc(NCc2ccc(CO)o2)n1
  NPYLR7 agonist: -2; NPYLR7 agonist max-min: -7
OC(c1ccccc1)c1nc(/C=C/c2ccccc2)cs1 (stereo not drawn)
  NPYLR7 agonist: 8; NPYLR7 agonist max-min: 3

Other structures follow.
Under each structure: NPYLR7 agonist	NPYLR7 agonist max-min
> Cc1ccc(C#N)c(SCC(=O)c2ccc(Br)cc2)n1
→ -4	-8
> CCOc1ccc(/C=C2\N=C(c3ccc(Br)cc3)OC2=O)cc1
→ 2	-4
> OCCNc1nc(Cl)nc(Nc2ccc(I)cc2)n1
→ 20	10
> Cc1c(C(=O)OCc2ccccc2)nnn1-c1ccc(Cl)cc1
→ -18	-23
> CCCNC(=O)C(C)NC(=O)c1[nH]c2ccccc2c1Br (stereo not drawn)
→ -1	-5
> CCc1nc(CC(=O)Nc2c(F)cccc2N2CCCC2)cs1
→ 8	2
> Cc1ccccc1-n1ncc(C(C)NC(=O)c2ccsc2)c1C (stereo not drawn)
→ 1	-1
> O=C(Nc1ccc(N2CCCC2)nc1)C1CCCN1C(=O)c1ccccc1 (stereo not drawn)
→ 2	0
> Cc1ccccc1Oc1cc(C(C)(C)C)nc(SCc2cccc(Cl)c2)n1
→ 2	9
> Cc1nc(SCc2cc(=O)n3c(C)csc3n2)c(C#N)c(C)c1C
→ 4	3
> Nc1nc2nc(-c3cccs3)cc(C(F)(F)F)n2n1
→ 3	0
> CC(=O)Nc1ccc(C(=O)Nc2ccc(N(C)C)c(Cl)c2)cc1
→ 1	1
> COc1ccccc1NC(=O)CSc1nnc(CCc2c(C)[nH]c(=O)n(C)c2=O)o1
→ -6	-10
> COc1ccc(N2CCN(C(=O)C3CC=CCC3C(=O)Nc3cccc(OC)c3)CC2)cc1 (stereo not drawn)
→ -8	-13
> CNC(=O)CNC(=O)c1ccc2cc(OC)ccc2c1
→ 3	1

The list continues:
Under each structure: NPYLR7 agonist	NPYLR7 agonist max-min
> O=C(NCc1ccc(F)cc1F)c1ccc(-c2cc(-c3cccc(C(F)(F)F)c3)n[nH]2)cc1
→ 24	13
> CC(C)N(C(=O)c1ccc(Cl)o1)c1ccc(S(C)(=O)=O)cc1
→ 5	6
> CCn1cc(NC(=O)N2CCc3ccccc32)c2ccccc21
→ 7	4
> COCCn1cncc1-c1nc2c([nH]1)CC(C)(C)CNC2=O
→ 2	0
> COc1ccc(-c2cn[nH]c2-c2ccc(OCCN3CCOCC3)cc2O)cc1OC
→ 0	-2
> COc1ccc(-c2[nH]ncc2CN2CC[C@H]3CC[C@@H](C2)N3)cc1
→ -2	-6
> Cc1c(COc2ccc3ccccc3c2)nnn1CC(=O)NS(=O)(=O)c1ccccc1C(F)(F)F
→ 6	2
> CCCCC(CC)C(=O)N1CCN(C(=O)CCCSc2nnc(-c3ccccc3Cl)n2-c2ccccc2)CC1C (stereo not drawn)
→ 1	-1
> COc1cccc(CN(Cc2nc(C(=O)NCCc3ccccn3)co2)CC2CC2)c1
→ 13	11
> c1ccc2nc(N3CCC4(CCCO4)CC3)cnc2c1
→ 8	5
> CCC1CN(C(=O)C(C)C)CCC1NCc1cscn1 (stereo not drawn)
→ 8	5
> COCCN(Cc1cccc(OS(=O)(=O)c2cccc(C(F)(F)F)c2)c1)C(=O)c1ccc(Cl)cc1
→ -7	-7
> Cc1ccc(-c2cc(C(=O)Nc3cccc(F)c3)c3ccccc3n2)cc1C
→ 1	3
> NC(=O)c1c(NC(=O)CSc2nnc3n2CCCCC3)sc2c1CCCC2
→ 0	-3
> N#CC(c1ccc(F)cc1)N1CCN(C(=O)C=Cc2ccc3c(c2)OCO3)CC1 (stereo not drawn)
→ 3	2
